Ecoli rRNA inh: reduced GFP signal of wild-type E. coli, primary screen, bacterial rRNA inhibitor project, GFP/RFP fluorescence, OD600, single point. actives 1.6% (n = 350,000). GFP signal change (wild-type ribosome), % (test concentration not listed). E. coli WT GFP vs humanized-ribosome RFP mutants, 24 h; hits give low values; DMSO median 0, no signal -100;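 active = significant combined selectivity score with lowered wild-type GFP, culture density cut under 30%, mutant RFP and density less affected; inactive = any of these conditions unmet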; also: one replicate is shown; some compounds called inactive have numbers as strong as hits
Ecoli rRNA inh OD600: also measured in Ecoli rRNA inh; calls as there; OD600 change, %; measured here: OD600 growth;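 optical density of the mix in the first replicate; 0 = DMSO median and -100 = no signal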
Ecoli rRNA inh RFP: also measured in Ecoli rRNA inh; calls as there; RFP signal change, %; measured here: RFP humanized mutant strains;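 first replicate; 0 = DMSO median and -100 = no signal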
* = called active by the depositor. Some of the compounds tested; rates above refer to the full screens.

COc1ccccc1-c1ccc2c(c1)[C@H]1[C@H](CCN1S(=O)(=O)c1cccc(F)c1)[C@@H](CO)N2 was read as Ecoli rRNA inh 1, Ecoli rRNA inh OD600 4 and Ecoli rRNA inh RFP 5.6.
For CC(=O)N1C2CN(CC(F)(F)F)CC1C2c1ccc(Br)cc1 (stereo unspecified) the results were Ecoli rRNA inh -7, Ecoli rRNA inh OD600 -23 and Ecoli rRNA inh RFP 0.5.
`COCC#Cc1ccc([C@@H]2[C@H]3CN(C(=O)Nc4cc(F)ccc4F)CC(=O)N3[C@H]2CO)cc1` gave Ecoli rRNA inh -3, Ecoli rRNA inh OD600 -4 and Ecoli rRNA inh RFP -4.7.
`O=C1NCCCOCc2cn(nn2)CC[C@@H]1Cc1ccc(-c2ccccc2)cc1` gave Ecoli rRNA inh 3, Ecoli rRNA inh OD600 1 and Ecoli rRNA inh RFP 3.4.
`C[C@@H]1CN([C@@H](C)CO)C(=O)CCCn2cc(nn2)CO[C@@H]1CN(C)C(=O)C1CCCCC1` gave Ecoli rRNA inh 5, Ecoli rRNA inh OD600 3 and Ecoli rRNA inh RFP -3.1.
For C[C@@H]1CN([C@@H](C)CO)C(=O)c2cccc(NC(=O)Nc3cccc4ccccc34)c2O[C@H]1CN(C)C(=O)Nc1ccc(C(F)(F)F)cc1 the results were Ecoli rRNA inh -7, Ecoli rRNA inh OD600 5 and Ecoli rRNA inh RFP -1.1.
For Cc1ccc(S(=O)(=O)Nc2cccc3c2O[C@@H](CN(C)C(=O)Nc2cccc4ccccc24)[C@@H](C)CN([C@@H](C)CO)C3=O)cc1 the results were Ecoli rRNA inh 1, Ecoli rRNA inh OD600 -3 and Ecoli rRNA inh RFP 2.4.
`CC(C)NC(=O)N(C)C[C@H]1Oc2ccc(NS(C)(=O)=O)cc2CC(=O)N(C)C[C@@H]1C` gave Ecoli rRNA inh 3, Ecoli rRNA inh OD600 7 and Ecoli rRNA inh RFP 0.1.
CC(C)[C@@H]1C(=O)NCCC=CC[C@H](C)Oc2ccccc2C(=O)N1C (mixture of isomers) was read as Ecoli rRNA inh 3, Ecoli rRNA inh OD600 5 and Ecoli rRNA inh RFP 0.4.
`C[C@@H]1CN([C@H](C)CO)C(=O)Cc2cc(NS(=O)(=O)c3ccc(F)cc3)ccc2O[C@@H]1CN(C)Cc1ccc(-c2ccccc2)cc1` gave Ecoli rRNA inh 2, Ecoli rRNA inh OD600 6 and Ecoli rRNA inh RFP 2.6.
`Cc1noc(C)c1S(=O)(=O)N(C)C[C@H]1Oc2ccc(NC(=O)CCCN(C)C)cc2C(=O)N([C@H](C)CO)C[C@@H]1C` gave Ecoli rRNA inh -3, Ecoli rRNA inh OD600 5 and Ecoli rRNA inh RFP -3.4.
`O=C(Cc1ccccc1)N1CC[C@@H]2[C@@H](CO)Nc3ccc(C#Cc4cccc(F)c4)cc3[C@@H]21` gave Ecoli rRNA inh -4, Ecoli rRNA inh OD600 -1 and Ecoli rRNA inh RFP -1.7.
For C[C@H](CO)N1C[C@H](C)[C@@H](CN(C)S(C)(=O)=O)Oc2cc(-c3ccc(F)cc3)ccc2S1(=O)=O the results were Ecoli rRNA inh -9, Ecoli rRNA inh OD600 -38 and Ecoli rRNA inh RFP -6.7.
`C[C@H]1CN([C@@H](C)CO)C(=O)c2cccc(NC(=O)c3cnccn3)c2O[C@@H]1CN(C)S(=O)(=O)c1ccccc1` gave Ecoli rRNA inh 1, Ecoli rRNA inh OD600 -3 and Ecoli rRNA inh RFP 2.4.
CCCNC(=O)NC[C@H]1[C@@H](c2ccc(C3=CCCC3)cc2)[C@@H](CO)N1C(C)=O was read as Ecoli rRNA inh 0, Ecoli rRNA inh OD600 -1 and Ecoli rRNA inh RFP 3.4.
For C[C@@H]1CN([C@@H](C)CO)S(=O)(=O)c2ccc(C3=CCCCC3)cc2O[C@H]1CN(C)Cc1ccccc1 the results were Ecoli rRNA inh 3, Ecoli rRNA inh OD600 -4 and Ecoli rRNA inh RFP 0.3.
COc1ccccc1C#Cc1ccc2c(c1)O[C@@H](CN(C)C)[C@@H](C)CN([C@H](C)CO)S2(=O)=O was read as Ecoli rRNA inh 0, Ecoli rRNA inh OD600 1 and Ecoli rRNA inh RFP -0.4.
Screening O=C(C1CCOCC1)N1[C@H](CO)[C@@H]2c3ccccc3NC[C@@H]21 returned Ecoli rRNA inh -1, Ecoli rRNA inh OD600 9 and Ecoli rRNA inh RFP -0.9.
For Cc1noc(C)c1NC(=O)N(C)C[C@@H]1OCCCC[C@H](C)Oc2ccc(NC(=O)Nc3ccccc3)cc2C(=O)N([C@@H](C)CO)C[C@H]1C the results were Ecoli rRNA inh 0, Ecoli rRNA inh OD600 4 and Ecoli rRNA inh RFP -0.3.
`C[C@@H]1CN([C@H](C)CO)C(=O)c2cc(NS(C)(=O)=O)ccc2O[C@H]1CN(C)S(=O)(=O)c1ccccc1` gave Ecoli rRNA inh 1, Ecoli rRNA inh OD600 5 and Ecoli rRNA inh RFP -1.8.
CO[C@H]1CN(C)C(=O)c2ccc(NC(=O)C3CCOCC3)cc2OC[C@@H](C)N(C)C[C@@H]1C was read as Ecoli rRNA inh 0, Ecoli rRNA inh OD600 5 and Ecoli rRNA inh RFP -2.2.
For COc1ccc(NC(=O)N(C)C[C@H]2OCCCC[C@H](C)Oc3ccc(NC(=O)C4CCCCC4)cc3C(=O)N([C@H](C)CO)C[C@H]2C)cc1 the results were Ecoli rRNA inh 3, Ecoli rRNA inh OD600 -1 and Ecoli rRNA inh RFP 2.9.
`COc1ccc(-c2cnc3c(c2)C(=O)N([C@H](C)CO)C[C@H](C)[C@H](CN(C)Cc2cccc(C)c2)O3)cc1` gave Ecoli rRNA inh -1, Ecoli rRNA inh OD600 7 and Ecoli rRNA inh RFP 4.0.
COc1ccc(CN(C)C[C@H]2OCCCC[C@@H](C)Oc3ccc(NC(=O)NC(C)C)cc3C(=O)N([C@@H](C)CO)C[C@H]2C)cc1 was read as Ecoli rRNA inh -1, Ecoli rRNA inh OD600 -5 and Ecoli rRNA inh RFP -1.3.

An excerpt from above in order of SMILES length, falling.
For Cc1noc(C)c1NC(=O)N(C)C[C@@H]1OCCCC[C@H](C)Oc2ccc(NC(=O)Nc3ccccc3)cc2C(=O)N([C@@H](C)CO)C[C@H]1C the results were Ecoli rRNA inh 0, Ecoli rRNA inh OD600 4 and Ecoli rRNA inh RFP -0.3.
COc1ccc(CN(C)C[C@H]2OCCCC[C@@H](C)Oc3ccc(NC(=O)NC(C)C)cc3C(=O)N([C@@H](C)CO)C[C@H]2C)cc1 was read as Ecoli rRNA inh -1, Ecoli rRNA inh OD600 -5 and Ecoli rRNA inh RFP -1.3.
`C[C@H]1CN([C@@H](C)CO)C(=O)c2cccc(NC(=O)c3cnccn3)c2O[C@@H]1CN(C)S(=O)(=O)c1ccccc1` gave Ecoli rRNA inh 1, Ecoli rRNA inh OD600 -3 and Ecoli rRNA inh RFP 2.4.
`C[C@@H]1CN([C@H](C)CO)C(=O)c2cc(NS(C)(=O)=O)ccc2O[C@H]1CN(C)S(=O)(=O)c1ccccc1` gave Ecoli rRNA inh 1, Ecoli rRNA inh OD600 5 and Ecoli rRNA inh RFP -1.8.
For C[C@@H]1CN([C@@H](C)CO)S(=O)(=O)c2ccc(C3=CCCCC3)cc2O[C@H]1CN(C)Cc1ccccc1 the results were Ecoli rRNA inh 3, Ecoli rRNA inh OD600 -4 and Ecoli rRNA inh RFP 0.3.
CCCNC(=O)NC[C@H]1[C@@H](c2ccc(C3=CCCC3)cc2)[C@@H](CO)N1C(C)=O was read as Ecoli rRNA inh 0, Ecoli rRNA inh OD600 -1 and Ecoli rRNA inh RFP 3.4.

Following part:
For COc1ccc2c3c([nH]c2c1)[C@@H](CO)N(C(=O)c1ccc(F)cc1)CC31CCN(C)CC1 the results were Ecoli rRNA inh 1, Ecoli rRNA inh OD600 -8 and Ecoli rRNA inh RFP -3.2.
`CC(C)NC(=O)N1C2CN(CC(F)(F)F)CC1C2c1ccc(Br)cc1` (stereo unspecified) gave Ecoli rRNA inh -2, Ecoli rRNA inh OD600 -12 and Ecoli rRNA inh RFP 4.6.
`CCCNC(=O)N1CC(=O)N2[C@H](CO)[C@H](c3ccc(-c4ccccc4)cc3)[C@@H]2C1` gave Ecoli rRNA inh -5, Ecoli rRNA inh OD600 3 and Ecoli rRNA inh RFP -1.2.
`C/C=C/c1ccc([C@@H]2[C@H](CO)N(C(=O)NCCC)[C@H]2CNC(=O)C2CC2)cc1` gave Ecoli rRNA inh -3, Ecoli rRNA inh OD600 6 and Ecoli rRNA inh RFP 1.4.
For CS(=O)(=O)N1C2CN(CC3CC3)CC1C2c1ccc(Br)cc1 (stereo unspecified) the results were Ecoli rRNA inh -2, Ecoli rRNA inh OD600 -2 and Ecoli rRNA inh RFP 1.3.
Screening CN1c2ccc(-c3cccc(F)c3)cc2[C@@H]2[C@@H](CCN2C(=O)c2ccncc2)[C@H]1CO returned Ecoli rRNA inh -7, Ecoli rRNA inh OD600 -13 and Ecoli rRNA inh RFP 3.2.
CO[C@H]1CN(C)C(=O)c2ccc(NC(C)=O)cc2OC[C@@H](C)N(C(=O)CN2CCOCC2)C[C@H]1C was read as Ecoli rRNA inh 3, Ecoli rRNA inh OD600 5 and Ecoli rRNA inh RFP -2.4.
Screening COc1ccc2c3c([nH]c2c1)[C@H](CO)N(C(=O)Nc1c(C)noc1C)CC31CN(CC2CC2)C1 returned Ecoli rRNA inh 0, Ecoli rRNA inh OD600 -10 and Ecoli rRNA inh RFP 2.5.
For CC(=O)N(C)C[C@H]1Oc2ccc(N)cc2C(=O)N(C)C[C@@H]1C the results were Ecoli rRNA inh 0, Ecoli rRNA inh OD600 2 and Ecoli rRNA inh RFP 0.9.
For CC1C=NC(S(=O)(=O)N2CC[C@@H]3[C@H](CO)N(C)c4ccc(C#Cc5ccccc5)cc4[C@@H]32)=N1 (stereo partly specified) the results were Ecoli rRNA inh -7, Ecoli rRNA inh OD600 -17 and Ecoli rRNA inh RFP 23.
`Cc1ccc(S(=O)(=O)Nc2ccc3c(c2)CC(=O)N([C@@H](C)CO)C[C@@H](C)[C@@H](CN(C)Cc2ccc(C(F)(F)F)cc2)O3)cc1` gave Ecoli rRNA inh -2, Ecoli rRNA inh OD600 0 and Ecoli rRNA inh RFP 0.9.
Screening C/C=C/c1ccc([C@@H]2[C@@H](CO)N(C(=O)CC)[C@H]2CN(C)S(C)(=O)=O)cc1 returned Ecoli rRNA inh 0, Ecoli rRNA inh OD600 2 and Ecoli rRNA inh RFP 0.6.
Screening CC(=O)Nc1cccc2c1O[C@@H](CN(C)C(=O)NC(C)C)[C@H](C)CN(C)C2=O returned Ecoli rRNA inh 1, Ecoli rRNA inh OD600 6 and Ecoli rRNA inh RFP 0.0.
Screening CC(C)NC(=O)Nc1ccc2c(c1)CC(=O)N(C)C[C@@H](C)[C@@H](CN(C)C(=O)OC(C)(C)C)O2 returned Ecoli rRNA inh 2, Ecoli rRNA inh OD600 4 and Ecoli rRNA inh RFP 0.7.
COc1ccc(C#Cc2ccc3c(c2)[C@@H]2[C@@H](CCN2C(=O)C2CCOCC2)[C@@H](CO)N3)cc1 was read as Ecoli rRNA inh -7, Ecoli rRNA inh OD600 0 and Ecoli rRNA inh RFP -3.0.
C[C@@H]1CCCCO[C@H](CN(C)Cc2ccc(C(=O)Nc3ccccc3N)cc2)[C@H](C)CN([C@@H](C)CO)C(=O)c2cc(N(C)C)ccc2O1 was read as Ecoli rRNA inh -2, Ecoli rRNA inh OD600 -1 and Ecoli rRNA inh RFP 1.6.
Screening CC(C)NC(=O)N(C)C[C@H]1Oc2c(NS(C)(=O)=O)cccc2C(=O)N(C)C[C@@H]1C returned Ecoli rRNA inh 0, Ecoli rRNA inh OD600 1 and Ecoli rRNA inh RFP 0.6.
CC(C)[C@H]1COCc2cn(nn2)CCC[C@H](C)C(=O)N1 was read as Ecoli rRNA inh 7, Ecoli rRNA inh OD600 15 and Ecoli rRNA inh RFP 1.3.
Screening C[C@@H]1CN(C)C(=O)c2cc(N(C)C)ccc2O[C@@H]1CN(C)C(=O)OC(C)(C)C returned Ecoli rRNA inh -7, Ecoli rRNA inh OD600 -8 and Ecoli rRNA inh RFP -0.4.
`O=C(NC[C@H]1[C@H](c2ccccc2)[C@H](CO)N1C(=O)C1CCC1)NC1CCCC1` gave Ecoli rRNA inh 0, Ecoli rRNA inh OD600 7 and Ecoli rRNA inh RFP -0.5.
Screening O=C(Nc1ccc(F)cc1)N1CC(=O)N2[C@H](C1)[C@H](c1ccc(C#Cc3ccccc3)cc1)[C@@H]2CO returned Ecoli rRNA inh -2, Ecoli rRNA inh OD600 -31 and Ecoli rRNA inh RFP 28.
`CNC[C@H]1Oc2c(NC(C)=O)cccc2C(=O)N(C)C[C@@H]1C` gave Ecoli rRNA inh 0, Ecoli rRNA inh OD600 -5 and Ecoli rRNA inh RFP -2.3.
`COc1ccc2c3c(n(C)c2c1)[C@@H](CO)NCC31CCN(Cc2ccc(F)cc2)CC1` gave Ecoli rRNA inh 1, Ecoli rRNA inh OD600 -11 and Ecoli rRNA inh RFP 0.2.
Screening CN(C)C(=O)c1cccc(-c2ccc([C@H]3[C@@H](CO)N4CCCCN(C(=O)C5CCC5)C[C@@H]34)cc2)c1 returned Ecoli rRNA inh 4, Ecoli rRNA inh OD600 3 and Ecoli rRNA inh RFP 1.8.
C[C@H]1CN([C@@H](C)CO)C(=O)Cc2cc(NS(=O)(=O)c3ccccc3)ccc2O[C@H]1CN(C)C(=O)Nc1ccc2c(c1)OCO2 was read as Ecoli rRNA inh 1, Ecoli rRNA inh OD600 3 and Ecoli rRNA inh RFP 0.5.
For CC(C)NC(=O)N(C)C[C@H]1OCCCC[C@H](C)Oc2ccc(NC(=O)c3ccncc3)cc2C(=O)N([C@@H](C)CO)C[C@@H]1C the results were Ecoli rRNA inh -1, Ecoli rRNA inh OD600 0 and Ecoli rRNA inh RFP 0.5.
